Source: PubChem
Rango release inh – inhibition of RanGTP-driven Rango-importin beta dissociation. Potency, µM (series often up to 46.1 µM), for the others: at the top dose activity change, negative = inhibition. Biochemical FRET Rango-importin beta, RanGTP-induced dissociation. hit rate 0.071% among 340,000. AID 540253. O95149+P62826; active means falling FRET ratio curve, often poorly fitted, with flat reads before Ran was added; inconclusive means other falling curves, or compound fluorescence or quenching; inactive means flat or rising ratio curve;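 further: potency means the concentration at half of the fitted maximal effect; % of control where 0% means no effect; nearly all actives have a fitted effect of over 45% in size; -100% = wells without RanGTP and RCC1; the record marks most hits as doubtful in a second field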
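Compounds preincubate 5 min with complex of recombinant Rango and importin beta in PBS with 1 mM DTT. Ran (0.6 uM) loaded with 2 mM GTP plus 0.2 uM RCC1 starts dissociation; FRET is recorded 45 min later.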
GLA inh pH 4.5 – inhibitors of human alpha-galactosidase A at pH 4.5; activity change, negative = inhibition, % at 105 µM; P06280; purified enzyme, 4-MU-alpha-Gal fluorescence, pH 4.5; 230,000 tested, under 10 active; inconclusive = small, poorly fitted or top-dose-only inhibition, or a rising curve; inactive = flat fitted curve, though single readings scatter; no compound was filed as active;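 further: 0% = full activity with enzyme and -100% = basal without enzyme; dose as in the result columns while the protocol names 77 µM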
Target sequence (P06280 whole entry, looked up): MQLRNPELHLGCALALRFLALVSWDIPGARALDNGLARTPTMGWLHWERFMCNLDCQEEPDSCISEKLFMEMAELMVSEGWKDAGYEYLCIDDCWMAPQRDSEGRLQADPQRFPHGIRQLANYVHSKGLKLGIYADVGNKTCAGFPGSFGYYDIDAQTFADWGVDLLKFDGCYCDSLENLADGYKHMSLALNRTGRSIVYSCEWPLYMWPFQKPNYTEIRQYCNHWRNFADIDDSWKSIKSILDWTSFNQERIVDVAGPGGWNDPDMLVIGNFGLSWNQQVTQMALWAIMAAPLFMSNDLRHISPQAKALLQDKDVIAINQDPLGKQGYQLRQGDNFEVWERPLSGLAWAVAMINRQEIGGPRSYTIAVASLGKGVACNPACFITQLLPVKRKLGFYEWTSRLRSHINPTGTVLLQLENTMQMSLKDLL
Rango-impB inh – inhibitors of Rango-importin beta complex formation; Rango CFP/YFP FRET sensor + importin beta, 45 min; Potency, µM (series often up to 92.2 µM), for the others: at the highest dose inhibition of complex formation; Q14974; hit rate 0.031% among 340,000; active = rising FRET ratio curve, often small or poorly fitted; inconclusive = mostly compound fluorescence or quenching in the first reads; inactive = flat curves in all reads;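 further: potency means the concentration at half of the fitted maximal effect; 0% = DMSO wells and 100% = buffer wells lacking importin beta; nearly all actives have a fitted effect of over 15% in size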
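Inhibition scored from the CFP 486 nm/YFP 530 nm FRET ratio 45 min after adding 0.125 microM importin beta to 50 nM Rango biosensor preincubated 5 min with compound (room temperature, PBS with DTT, Tween-20, BSA). No-importin wells as positive control.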
miR-21 reporter – miR-21 reporter, rising signal; HeLa miR-21 FLuc reporter, luciferase, 48 h; Potency, µM (titrated, usually from 38.3 µM), inactives show at the highest dose reporter change, positive = more light; 340,000 tested, under 10 active; AID 2288; active = well fitted rising curve with a large enough effect; inconclusive = small, poorly fitted or top-dose-only effect; inactive = no such curve, though single readings can be large or run the other way;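 further: % of control where 0% means no effect; miR-21 action dims this reporter so a rising signal means less miR-21 action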
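HeLa cells endogenously expressing miR-21, stably carrying CMV-driven firefly luciferase with a downstream miR-21 binding site, 2000 cells/well. Titrations up to approximately 40 uM, 48 hours; luciferase luminescence read.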
Active calls of the source: *; u = inconclusive; x = no result given; & = joins results of further samples; [ ] = another dose, or the depositor's remark. Only part of the results is shown (hit frequency here may not be typical).

SMILES | Rango release inh | GLA inh pH 4.5 | Rango-impB inh | miR-21 reporter
CC(C(=O)NN=C(c1ccccc1)c1ccccc1)N1CCOCC1 (stereo not given) | 6% | 5 | 2.6% | -7%
CCN(CC)S(=O)(=O)c1ccc(S(=O)(=O)N2CCN(C(=O)c3ccco3)CC2)cc1 | -9% | -20 | 1.6% | 0%
CC1CCCCN1C(=O)CSc1nc(-c2ccccc2)cc(=O)[nH]1 (stereo not given) | -19% | 9 | 0.4% | -2%
CC1CCCC(C)N1CC(O)Cn1c2ccccc2c2ccccc21 (stereo not given) | -7% | x | -1.5% | -5%
COc1ccc(S(=O)(=O)N2CCOC2CNC(=O)C(=O)NCCN2CCOCC2)cc1C (stereo not given) | 6% | x | -0.7% | 0%
O=C(NNC(=O)c1csc(-c2cnccc2C(F)(F)F)n1)c1ccc(C(F)(F)F)cc1 | 8% | 2 | 3.7% | 4%
Cc1ccc(S(=O)(=O)NC(C)c2ccccc2)cc1[N+](=O)[O-] (stereo not given) | -2% | x | -0.5% | -4%
N#C/C(=C(/O)CCl)c1nc2ccccc2[nH]1 | 13µM* | 1 | u | u
CCN(CC)CCCN1C(=O)C(O)=C(C(=O)c2ccco2)C1c1ccc(OC(C)C)cc1 (stereo not given) | -12% | -7 | -0.5% | -18%
O=C(Cc1ccc2c(c1)OCCO2)N1CCN(S(=O)(=O)c2cccs2)CC1 | -11% | -5 | -1.8% | -13%
NC(=O)CSc1nnc(NC(=O)c2ccc(S(=O)(=O)N3CCCCC3)cc2)s1 | 0% | x | -3.6% | x
Cc1c(CCCl)c(Cl)n2c(nc3ccccc32)c1C#N | u | x | u | x

Fetched by structure from the list above (three):
SMILES | Rango release inh | GLA inh pH 4.5 | Rango-impB inh | miR-21 reporter
O=C(NNC(=O)c1csc(-c2cnccc2C(F)(F)F)n1)c1ccc(C(F)(F)F)cc1 | 8% | 2 | 3.7% | 4%
CC1CCCCN1C(=O)CSc1nc(-c2ccccc2)cc(=O)[nH]1 (stereo not given) | -19% | 9 | 0.4% | -2%
N#C/C(=C(/O)CCl)c1nc2ccccc2[nH]1 | 13µM* | 1 | u | u

More compounds:
SMILES | Rango release inh | GLA inh pH 4.5 | Rango-impB inh | miR-21 reporter
COC(=O)c1c(-c2cccc(C)c2)csc1N | 1% | -6 | 5.7% | 1%
Cc1c(C(=O)OCC(=O)N(C)C2CCS(=O)(=O)C2)oc2ccc(Br)cc12 (stereo not given) | -6% | -4 | 4.5% | -1%
CC(=O)Nc1cccc(-c2nnc(SCC(=O)n3c4c(c5ccccc53)CCCC4)n2C)c1 | 0% | 3 | -1.7% | -1%
Cc1ccc2nc3c(cc(C(=O)NC4CCCC4)c(=N)n3CCCn3ccnc3)c(=O)n2c1 | x | 9 | x | -16%
CC(Sc1nnc(-c2ccncc2)n1C)C(=O)NCC1CCCO1 (stereo not given) | -14% | x | 3.1% | x
CCOC(=O)N1CCN(c2cc(=O)n(-c3ccccc3Cl)c(=O)[nH]2)CC1 | 1% | 0 | 0.0% | 3%
Cn1cccc1/C=C1/SC(=O)N(CC(=O)N2CCCC2)C1=O | 0% | -14[21.1 µM] | -2.0% | 4%
CCOc1cc(N2CCOCC2)c(OCC)cc1NC(=O)c1ccc(C)cc1 | 12% | 0 | 2.7% | 9%
O=C1CC(c2ccccc2)CC(O)=C1C=NCc1ccc(Cl)c(Cl)c1 (stereo not given) | 1% | -4 | -1.0% | -6%
CCC1(C)Cc2nc3sc(C(=O)O)c(N)c3cc2CO1 (stereo not given) | 18µM* | 2 | u | -9%
Cc1ccc(Cn2ccc(NC(=O)c3cc(C4CC4)on3)n2)cc1 | 2% | -4 | -1.0% | -8%
COC(=O)c1cc(OC)c(OC)cc1N1C(=O)CCCC1=O | -10% | x | 2.0% | 1%
CC(C)c1nnc(NC(=O)COC(=O)/C=C/c2ccc([N+](=O)[O-])cc2)s1 | -3% | x | 0.6% | 2%
COc1ccc(CN(C)CC(=O)NC(=O)NCc2ccccc2)cc1OC | 10% | -1 | -2.6% | -17%
O=C(O)Cc1ccc(NC(=O)Nc2cccc3ccccc23)cc1 | u | x | 1.3% | 4%
CCc1ccc[n+](-c2nc([O-])sc2C=O)c1 | -5% | 4 | -1.0% | 1%
CCn1c(SCC(=O)C(C)(C)C)nnc1-c1ccccc1OC | 1% | 1 | -1.0% | 0%
CCOC(=O)c1oc2ccccc2c1NC(=O)CCl | -20% | 3 | 0.6% | 21%
Cc1ccc2c(c1)=C(c1sc(N(C)c3ccc(O)cc3)nc1O)C(=O)N=2 | -4% | x | 0.0% | -11%
CCOCCCN1C(=O)C(O)=C(C(C)=O)C1c1cccs1 (stereo not given) | 0% | x | u | x
COc1cccc(/C=N/Nc2ncnc(Cl)c2N)c1O | -18% | 3 | -0.2% | 15%
CC1SC(=NC(=O)C(C)N2C(=O)c3ccccc3C2=O)NC1=O (stereo not given) | 4% | -1 | 0.4% | -3%
COc1cc(S(=O)(=O)N2CCOCC2)ccc1NC(=O)COC(=O)c1ccccn1 | 2% | 4 | -1.2% | -4%
Cc1ccc([N+](=O)[O-])c(C(=O)Nc2cccnc2Cl)c1 | -15% | -10 | -3.5% | 2%
Cc1ccc(N(CC(=O)NCC2CCCO2)C(=O)CCC(=O)Nc2nccs2)cc1 (stereo not given) | -15% | x | u | 0%
O=C(Nc1ccc2c(c1)OCO2)c1cnn2c1NC(c1ccco1)CC2C(F)(F)F (stereo not given) | -9% | -4 | -4.0% | -37%
CCC(=O)Nc1ccc(-c2nnc(SCC(=O)N3CCCCC3)n2C)cc1 | -7% | -1 | 5.0% | -1%
Cc1cc(C(=O)COc2cccc3cccnc23)c(C)n1C | u | 5 | u | 1%
N#Cc1ccccc1Cn1c(=O)n(CCCC(=O)NCc2ccc3c(c2)OCO3)c(=O)c2ccccc21 | -6% | 7 | -2.2% | -9%
O=C(O)c1ccc(-n2[nH]c3c(c2=O)CCCC3)cc1 | -5% | -3 | -0.3% | -4%
CC(=O)C1=C(C)NC(=O)NC1c1ccc(Cl)cc1 (stereo not given) | 2% | -2 | 3.9% | 2%
COc1ccccc1Oc1ccc(N/C=C/C(=O)C(C)(C)C)cc1 | -5% | 5 | -0.5% | -13%
S=C(NC1CCCC1)N1CCOCC1 | 1% | 5 | 0.8% | -1%
CC(=O)Oc1ccc(C(=O)Nc2ccccc2C(=O)Nc2cccc(C(=O)O)c2)cc1 | 10% | x | -0.7% | 5%
Cc1ccc(-c2nnn(CC(=O)N(Cc3cccs3)C(C(=O)NC3CCCCC3)c3ccco3)n2)o1 (stereo not given) | -5% | 5 | -2.1% | 0%
COc1ccc(N(Cc2cc3ccc(C)cc3[nH]c2=O)C(C)=O)cc1 | 3% | -1 | -6.0% | -6%

A draw from above in order of length of the SMILES, low to high.
SMILES | Rango release inh | GLA inh pH 4.5 | Rango-impB inh | miR-21 reporter
S=C(NC1CCCC1)N1CCOCC1 | 1% | 5 | 0.8% | -1%
O=C(O)c1ccc(-n2[nH]c3c(c2=O)CCCC3)cc1 | -5% | -3 | -0.3% | -4%
COc1ccccc1Oc1ccc(N/C=C/C(=O)C(C)(C)C)cc1 | -5% | 5 | -0.5% | -13%
Cc1ccc(N(CC(=O)NCC2CCCO2)C(=O)CCC(=O)Nc2nccs2)cc1 (stereo not given) | -15% | x | u | 0%
O=C(Nc1ccc2c(c1)OCO2)c1cnn2c1NC(c1ccco1)CC2C(F)(F)F (stereo not given) | -9% | -4 | -4.0% | -37%

Remaining list, next part.
SMILES | Rango release inh | GLA inh pH 4.5 | Rango-impB inh | miR-21 reporter
O=C(CCC1N=C2c3ccccc3N=C(SCc3ccc(Cl)cc3)N2C1=O)NCc1ccco1 (stereo not given) | 2% | -3 | 0.9% | -9%
Cc1cc(-c2ccccc2)n2nc(N)nc2n1 | -1% | 8 | -3.2% | 4%
COc1ccc(OC)c(NC(=O)COC(=O)CN(C)S(=O)(=O)c2ccc(C)cc2)c1 | -4% | -8 | u | -1%
CC1CCCN(CCOc2ccc(Br)cc2)C1 (stereo not given) | 27% | -6 | 4.5% | 0%
CN1CCN(S(=O)(=O)c2cccc(C(=O)Nc3sccc3C#N)c2)CC1 | u | x | u | x
Cc1ccc(CN(C)C(=O)C2CCC(=O)N(CC3CCCCC3)C2)o1 (stereo not given) | -14% | x | 0.2% | 0%
Cc1ccc2cccc(NC(=O)c3ccc(Br)o3)c2n1 | 1% | 2 | 3.9% | 16%
CC(C)c1nnc(NC(=O)CSc2ncn[nH]2)s1 | -9% | 1 | 4.6% | 0%
COC(=O)C1=C(C)N(c2ccc(Cl)c(Cl)c2)C(=O)C1 | 3% | -3 | u | -4%
COc1ccc(Nc2nc(C(C)(C)C)nc3c2nnn3Cc2ccccc2Cl)cc1OC | -8% | x | 0.2% | x
COc1ccccc1NC(=S)NCCSc1ccc(Cl)cc1 | 1% | -1 | -4.1% | -7%
Cc1ccc(C(=O)Nc2ccc3c(c2)OCCO3)cc1 | -9% | x | 0.7% | 8%
COc1ccccc1-c1nn2c(-c3ccc(C(C)(C)C)cc3)nnc2s1 | x | 5 | x | 1%
O=c1cc(-c2ccccc2)[nH]c2cc(Cl)ccc12 | -5% | -3&0 | -1.8% | 23%
CCn1c2ccccc2c2cc(NC(=O)c3cc(C)on3)ccc21 | -15% | -12 | -1.7% | 3%
COC(=O)c1ccc(NC(=O)C23CC4CC(C2)CC(n2cnc(Cl)n2)(C4)C3)cc1 | 35% | 13 | u | 1%
Cc1ccc(S(=O)(=O)Nc2cc(C(=O)NCCN(C)C)ccc2N2CCCC2)cc1 | -9% | x | u | 2%
O=C(COC(=O)c1ccc[nH]c1=O)NC1CCCCCC1 | 15% | 6 | -1.0% | 3%
CSCCC(NC(=O)c1ccccc1Br)C(=O)NCCCn1nc(C)cc1C (stereo not given) | 38% | x | 4.5% | x
O=C(NCc1ccccn1)C(=O)NN=C1CCCCCCCCCCC1 | 4% | 2 | 0.6% | -1%
CCOC(=O)Cc1csc(NC(=O)CS(=O)(=O)Cc2ccccc2)n1 | -1% | -2 | -0.6% | -3%
Cc1ccc(C2=NS(=O)(=O)N(C)C(C(=O)Nc3cc(C)n(CC(=O)N4CCC(C)CC4)n3)=C2)cc1 | 34% | x | -1.2% | 16%
CCOc1ccc(NC(=O)COC(=O)Cn2nc(C)c([N+](=O)[O-])c2C)cc1OCC | -9% | x | -0.3% | x
COc1ccc(C(=O)/C=C/c2ccc(N3CCCCC3)c([N+](=O)[O-])c2)cc1 | 36% | -1 | 4.0% | -6%
N#Cc1c(-c2ccco2)nc(SCC(=O)Nc2ccc(S(N)(=O)=O)cc2)[nH]c1=O | x | 0 | x | -1%
CCSc1nnc(NC(=O)C2CC2c2ccccc2)s1 (stereo not given) | 12% | 3 | 1.4% | -2%
C=CCOC(=O)C(C#N)c1nc2ccccc2nc1N1CCCC1 (stereo not given) | u | 1 | u | 4%
O=c1cc(-c2ccc(O)c(O)c2)oc2cc(O[C@@H]3O[C@H](CO)[C@@H](O)[C@H](O)[C@H]3O)cc(O)c12 | -14% | x | 8.9% | x
Cc1cc(SCC(=O)Nc2ccc3[nH]c(=O)[nH]c3c2)nc2ccccc12 | -3% | x | -0.5% | x
COCCN=C1Sc2nc3cc4c(cc3cc2CN1CC1CCCO1)OCO4 (stereo not given) | -6% | 6 | -1.8% | 2%
CC1CC(C)(C)Nc2ccc(OC(=O)c3ccco3)cc21 (stereo not given) | 12% | 4 | -0.7% | u
Cc1oc(S(=O)(=O)N2CCCCC2)cc1NC(=O)Nc1ccccc1 | -10% | 2 | 2.5% | -2%
CC1(C(=O)Nc2nnc(C(C)(C)C)s2)Cc2ccccc2C(=O)O1 (stereo not given) | 9% | -3 | -3.9% | -10%
